RN4220 kill: growth inhibition of S. aureus RN4220, primary screen, OD600; 16 h; inhibition, % (concentration not given with the values); 0.33% of 330,000 active;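 active = z-score of -3 or lower and OD600 up to 0.18 on both plates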;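 note: plate controls were untreated cells for no effect and reference antibiotic for full effect; stock transfer was 100 nL into about 80 µL; one replicate is shown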
Bead autofluor: counter-screen for toxin protease inhibitors: compound fluorescence; fluorescence intensity (concentration not given with the values); compound autofluorescence counterscreen, microsphere flow cytometry; active compounds read high; 3.1% of 360,000 active;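 active = at least 3 SD above the mean of all compounds, about 16000 in these data; inconclusive = too few beads counted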;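 note: 100 nL of 1 mM stock went into each well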
Mtb hypoxia inh: PubChem AID 1159583 | M. tuberculosis hypoxia-regulated fluorescent reporter, fluorescence | fluorescence inhibition, % (test concentration not listed) | 0.1% of 300,000 active;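 active = 35 to 45% if threefold the growth effect, above 45% if 1.5-fold the growth effect; inactive = the rest, general growth blockers included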;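 note: wells of about 50 µL received 100 nL stock; 0% = vehicle wells and 100% = reference inhibitor wells; whole bacteria with a GFP reporter of the hypoxia response; strong numbers were not always called active; many hits fall short of the cut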
PrP UTR inh: inhibition of PrP 5' UTR reporter expression; cell-based PrP 5' UTR mRNA reporter, plate reader; inhibition, % (concentration not given with the values); 0.35% of 340,000 active; AID 488862, 2010;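 active = every replicate at 50% or more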;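 note: 0 = median of the neutral control wells; tested in H4 reporter cells; numbers are from one replicate; inactives centre near -14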
BJeLR lethal: MLPCN primary cell-based screen for lethality selective to Ras in HRASV12 cells; BJeLR (HRASV12) viability, CellTiter-Glo ATP luminescence, 48 h; reference of the scale not given here; inhibition, % (no concentration beside the values); 0.17% of 300,000 active; AID 1554, 2009;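 active = replicate mean above 50%; inconclusive = above 50% but judged a plate artefact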;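 note: 50 nL library stock added to about 25 µL; numbers are from one replicate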
ugtP null kill: growth inhibition of ugtP-null S. aureus, primary screen, RN4220 ugtP deletion, OD600; 16 h; some inactives read as strong as hits; growth inhibition, % (test concentration not listed); 0.54% of 330,000 active; AID 1259309, 2017;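 active = z-score under -3 and OD600 up to 0.15 on both plates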;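 note: plate controls were untreated wells for no effect and antibiotic for full effect; wells of about 80 µL received 100 nL stock; the first replicate is given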
Mtb hypoxia inh growth: second read-out of Mtb hypoxia inh, no call of its own (marks repeat the call); growth inhibition, %; measured here: M. tuberculosis growth (absorbance);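 0% = vehicle and 100% = reference antibiotic; read after six days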
The depositor's hits bear a star; ? = inconclusive; . = no result given; & = joins results of further samples.

SMILES | RN4220 kill | Bead autofluor | Mtb hypoxia inh | Mtb hypoxia inh growth | PrP UTR inh | BJeLR lethal | ugtP null kill
COc1ccc(CCC(=O)NCCOc2ccc(C)cc2)cc1 | -0.9 | 4069 | 8.3 | -2.5 | -24.1 | 4.4 | 1.1
C/C(C=NNC(=O)NC1CCCCC1)=C\c1ccccc1 | 10.5 | . | 8.8 | 9.8 | . | . | -7.7
Cc1cc(C(=O)NN)n[nH]1 | 2.3 | . | 7.8 | 12.1 | -25.2 | 1.7 | 8.1
O=[N+]([O-])c1ccccc1/C=C/C=N/n1c(-c2ccccc2F)n[nH]c1=S | . | 3486 | . | . | -27.0 | 1.2 | .
CCCN1C(=O)C(=O)c2cc(Cl)ccc21 | 14.1 | 3888 | 1.1 | 8.9 | -23.3 | . | -10.7
CC(=O)Nc1ccc(S(=O)(=O)N[C@@H](C)C(=O)OCC(=O)NC2CCCC2)cc1 | 4.4 | 5834 | -0.8 | 1.1 | -9.0 | . | 2.8
O=CN1CCN(C(C(=O)NC2CCCCC2)c2ccc(Cl)cc2)CC1 (stereo unspecified) | 2.4 | 4773 | 1.0 | 2.5 | -8.6 | -1.6 | 7.5
COc1cccc(OCCn2cc(/C=N/NC(=O)c3ccncc3)c3ccccc32)c1 | . | 1930 | . | . | -13.9 | 3.1 | .
COc1ccccc1N1CCN(Cc2cc3c(cc2[N+](=O)[O-])OCO3)CC1 | 2.2 | 3355 | -1.0 | 6.5 | -5.9 | 0.3 | 6.3
CC(=O)Nc1ccc(Sc2ncccc2C(=O)Nc2ccc(OC(F)(F)F)cc2)cn1 | 12.6 | 10812 | 5.6 | 4.7 | -4.2 | 2.5 | -2.4
CC(=O)N1CCC(N(CCN2CCOCC2)C(=S)Nc2cccc(C)c2)CC1 | 5.3 | 2535 | 9.0 | 3.6 | -30.0 | 1.2 | 9.0
Cc1cccc(NCc2nc3ccccc3n2Cc2ccccc2)c1 | -6.5 | 7600 | 7.6 | 4.8 | -25.8 | -3.1 | -9.6
Cc1ccc(NC(=S)c2nc3ccccc3[nH]2)cc1 | -5.0 | 2025 | . | . | -36.0 | 0.9 | -5.6
CCOc1cccc(CNc2ccc(O)cc2)c1OCc1ccc(Cl)cc1Cl | -21.5 | 2437 | . | . | -25.5 | -2.3 | 82.9
O=C(Cc1ccc(-c2ccccc2)cc1)Nc1ccccn1 | 7.5 | 3907 | -2.2 | 2.6 | -23.5 | -10.7 | 1.2
COC(=O)c1cc2c(ccn2-c2ccc(F)cc2)n1C(C)C | 21.1 | 3724 | 15.1 | 10.1 | -93.1 | 2.9 | 14.1
Cc1ccc(C(C(=O)NC(C)(C)C)N(C(=O)CCC(=O)Nc2ccccn2)c2ccccc2F)cc1 (stereo unspecified) | 1.9 | 2919 | 13.3 | 8.6 | -30.9 | 3.7 | 0.2
CN(Cc1ccccc1)C(=O)c1nc2ccccn2c1CN1CCCC1c1nccs1 (stereo unspecified) | 9.8 | 5885 | 13.1 | 9.9 | -9.1 | -11.0 | 5.2
CC(c1ccccc1)[n+]1ccccc1 (stereo unspecified) | 5.7 | 3498 | 18.6 | 10.0 | -13.9 | 4.6 | -1.5
COc1ccc(C=NNC(=O)CNc2c(Br)cc(C)cc2Br)c(C(=O)O)c1OC | 3.6 | . | 3.8 | 3.9 | . | . | 6.3

Quoted from the listing.
CCCN1C(=O)C(=O)c2cc(Cl)ccc21 in Mtb hypoxia inh → 1.1
CN(Cc1ccccc1)C(=O)c1nc2ccccn2c1CN1CCCC1c1nccs1 (stereo unspecified) in ugtP null kill → 5.2
O=CN1CCN(C(C(=O)NC2CCCCC2)c2ccc(Cl)cc2)CC1 (stereo unspecified) in ugtP null kill → 7.5
O=C(Cc1ccc(-c2ccccc2)cc1)Nc1ccccn1 in PrP UTR inh → -23.5
COc1ccc(CCC(=O)NCCOc2ccc(C)cc2)cc1 in PrP UTR inh → -24.1
COc1ccccc1N1CCN(Cc2cc3c(cc2[N+](=O)[O-])OCO3)CC1 in Bead autofluor → 3355

(further entries)
SMILES | RN4220 kill | Bead autofluor | Mtb hypoxia inh | Mtb hypoxia inh growth | PrP UTR inh | BJeLR lethal | ugtP null kill
O=c1[nH]c2cc(Cl)c([N+](=O)[O-])nc2[nH]1 | 1.6 | 2138 | 6.6 | 11.8 | -25.0 | -1.6 | 6.8
Cc1ccc2[nH]c(C)c(CCNC(=O)c3cc4cc([N+](=O)[O-])ccc4oc3=O)c2c1 | 17.6 | 2569 | 2.7 | -1.3 | -27.3 | -14.8 | -9.8
Cn1nnnc1SCc1cc(=O)[nH]c2ccccc12 | 4.0 | 4006 | 18.4 | 9.3 | -0.5 | -4.3 | 1.0
O=c1c2ccccc2c(-c2ccc(F)cc2)nn1-c1ccc(C(F)(F)F)cc1 | -1.2 | 2472 | -0.6 | 2.8 | -10.2 | 6.1 | -4.2
CCC(C)Sc1cccc(-c2nc3cc(C)ccn3c2NC2CCCCC2)c1 (stereo unspecified) | 1.1 | 8037&12574 | -3.4 | 5.4 | -24.1 | . | 2.1
COc1cc(CNc2ccc3c(c2)OCCO3)ccc1OCC(N)=O | -2.4 | 4795 | -7.0 | -0.6 | -12.8 | -8.2 | 0.6
CC(C)(C#N)Nn1cnnc1 | 5.5 | 2497 | 2.6 | 9.4 | -15.2 | -5.4 | -3.1
O=C(CNC(=O)C1CCCCC1)NNC(=O)c1ccccc1Br | 1.3 | 4339 | 0.9 | -4.1 | -6.0 | 0.1 | 9.4
Cc1ccc(-n2c(C)cc(/C=N/NC(=O)CC3(C)OCCO3)c2C)c(C)c1 | . | 4966 | . | . | -1.4 | 5.5 | .
COCCNC(=O)CSc1nc2c(n1-c1ccccc1)CCCC2 | 2.7 | 3855 | 5.4 | 2.9 | -10.4 | 2.0 | 3.0
O=C(CN1C(=O)c2ccccc2C1=O)OCCOCCN=C1NS(=O)(=O)c2ccccc21 | 7.1 | 4203 | -6.3 | 0.2 | -0.9 | 5.3 | -0.2
CCOC(=O)CC(N)c1ccc(OC)cc1 (stereo unspecified) | -3.2 | 4182 | . | . | -5.6 | 2.2 | 4.8
CCOC(=O)N1CCN(CCCc2ccccc2)CC1 | 0.8 | . | 6.8 | -0.6 | -12.3 | -4.8 | 6.4
Cc1nn(-c2ccc(C(=O)NCC(c3ccco3)N3CCCC3)cc2)c(C)c1Cl (stereo unspecified) | 5.5 | 3433 | 2.4 | -12.4 | -19.7 | . | 13.9
Cc1nc2ccccc2c(=O)n1N=Cc1c(O)ccc2ccccc12 | 2.1 | . | 4.0 | 5.4 | . | . | 2.8
COc1ccc(NC(=O)Cn2cnc3c(oc4nc5c(cc43)COC(C)(C)C5)c2=O)cc1 | 2.2 | 4423 | 9.4 | -4.5 | -25.3 | -5.8 | 6.3
COc1cccc(N(CC(=O)NCCSc2ccccn2)S(C)(=O)=O)c1 | -2.7 | 4186 | 6.2 | 12.4 | -6.6 | 2.6 | -8.6
C[N+](C)(C)CCCCCC(=O)/C=N/O | . | 2711 | . | . | -16.0 | 0.2 | .
Cc1c(C(=O)O)sc(S(=O)(=O)N2CCN(C(=O)CCc3ccccc3)CC2)c1C(=O)O | 2.8 | 4373 | 4.7 | -6.9 | -17.9 | . | 5.4
COC(=O)C1=C(O)/C(=C\c2ccc(OCC(=O)Nc3ccccc3)cc2)N=C1C | -9.8 | 5343 | 6.8 | -2.1 | -36.4 | -11.6 | 10.2
CN(Cc1ccccc1)C(=O)c1ccccc1NC(=O)C1CC1 | 0.4 | 2256 | 3.6 | 2.8 | -29.6 | 21.7 | 11.3
CC(=O)c1ccc(N2Cc3ccccc3/C2=N\C(=O)Nc2ccccc2)cc1 | . | 2445 | . | . | -24.4 | 14.3 | .
COc1ccc(C2CC(c3ccccc3)=NN2c2ccc(S(N)(=O)=O)cc2)cc1OC (stereo unspecified) | -10.6 | 2121 | 6.1 | 9.4 | -19.7 | -3.9 | -11.2
O=C(CSc1nnc(-c2ccc(S(=O)(=O)N3CCCC3)cc2)n1CC1CCCO1)NC1CC1 (stereo unspecified) | 16.2 | 4834 | -1.3 | 4.6 | -5.3 | 4.2 | -0.1
CC(=O)Oc1cccc(N2C(=O)c3ccc(C(=O)Nc4cccnc4)cc3C2=O)c1 | 6.3 | 4513 | 12.4 | 9.4 | 0.1 | -1.2 | 3.9
Nc1c2c(nc3sc4c(c13)CCCCC4)CCCC2 | -1.4 | 2510 | . | . | -105.8 | 3.5 | -13.0
O=C(c1ccc2ccccc2n1)N1CCN(S(=O)(=O)c2ccc(Cl)cc2)CC1 | 2.1 | 4536 | 12.2 | 3.8 | -13.1 | . | 14.6
COc1ccc2nc(NC(=O)C(NS(=O)(=O)c3cccc4nsnc34)C(C)C)sc2c1 (stereo unspecified) | 4.1 | 5020 | 4.8 | 0.5 | 1.2 | . | 8.1
C/C(Cc1ccccc1)=N\NC(=O)c1ccc(F)cc1 | . | 2737 | . | . | -52.2 | -1.6 | .
CC1CCCC(C)N1C(=O)CSc1nc(N)cc(N)n1 (stereo unspecified) | -2.2 | 3740 | -3.4 | 0.6 | -17.5 | -1.9 | -2.3
Cc1ccc(N2CN(Cc3cccnc3)CNC2=S)c(C)c1 | -2.6 | 2753 | -0.9 | 2.0 | -4.3 | 5.0 | -2.1
O=C1CC(C(=O)Nc2ccc(Cl)c(Cl)c2)S/C(=N\N=C\c2ccco2)N1 (stereo unspecified) | . | 4924 | . | . | -8.7 | -7.0 | .
O=C(COC(=O)CC1CC2CCC1C2)Nc1ccc(Cl)c(S(=O)(=O)N2CCOCC2)c1 (stereo unspecified) | 1.3 | ? | 2.6 | 4.4 | 7.2 | . | -5.7
O=Cc1cccn1-c1ncc(Br)cn1 | 4.6 | 3321 | -2.9 | -10.9 | -4.0 | -10.0 | 5.4
CCn1cc(C(=O)N2CCCC2)c(=O)c2cc(S(=O)(=O)N(C)C)ccc21 | 2.2 | 4507 | . | . | -6.2 | -12.8 | -2.7
O=C(C1=COCCO1)N1CCN(S(=O)(=O)c2cccc(Br)c2)CC1 | 1.8 | 7926 | 2.3 | 0.6 | -13.9 | . | 9.5
CCOC(=O)c1[nH]c(C)c(CCC(=O)OC)c1C | 4.6 | 6169 | -11.9 | -4.1 | -32.2 | 7.1 | -1.5
CCn1c(=O)c(C(=O)CN2CCOCC2)c(N)n(Cc2ccccc2)c1=O | 1.4 | 10581 | 8.7 | -0.3 | -31.6 | -5.7 | 2.7
O=C(CN(c1cccc(C(F)(F)F)c1)S(=O)(=O)c1ccc(Cl)c([N+](=O)[O-])c1)NCc1ccccc1 | 6.0 | 7563 | -0.6 | 0.6 | -17.6 | 9.4 | 7.2
CCOc1ccccc1NC(=O)Cn1c(=O)n(-c2ccc(OC)cc2OC)c(=O)c2c(C)c(C(=O)N(CC)CC)sc21 | 4.5 | 4454 | 8.9 | 8.5 | -7.9 | -5.1 | 6.6

Some of the entries above in another layout:
> O=C(C1=COCCO1)N1CCN(S(=O)(=O)c2cccc(Br)c2)CC1
  RN4220 kill: 1.8
  Bead autofluor: 7926
  Mtb hypoxia inh: 2.3
  Mtb hypoxia inh growth: 0.6
  PrP UTR inh: -13.9
  BJeLR lethal: .
  ugtP null kill: 9.5

> CC(=O)Oc1cccc(N2C(=O)c3ccc(C(=O)Nc4cccnc4)cc3C2=O)c1
  RN4220 kill: 6.3
  Bead autofluor: 4513
  Mtb hypoxia inh: 12.4
  Mtb hypoxia inh growth: 9.4
  PrP UTR inh: 0.1
  BJeLR lethal: -1.2
  ugtP null kill: 3.9

> O=C(CN(c1cccc(C(F)(F)F)c1)S(=O)(=O)c1ccc(Cl)c([N+](=O)[O-])c1)NCc1ccccc1
  RN4220 kill: 6.0
  Bead autofluor: 7563
  Mtb hypoxia inh: -0.6
  Mtb hypoxia inh growth: 0.6
  PrP UTR inh: -17.6
  BJeLR lethal: 9.4
  ugtP null kill: 7.2

> O=C(CSc1nnc(-c2ccc(S(=O)(=O)N3CCCC3)cc2)n1CC1CCCO1)NC1CC1 (stereo unspecified)
  RN4220 kill: 16.2
  Bead autofluor: 4834
  Mtb hypoxia inh: -1.3
  Mtb hypoxia inh growth: 4.6
  PrP UTR inh: -5.3
  BJeLR lethal: 4.2
  ugtP null kill: -0.1

Screening data as filed in PubChem BioAssay.
